Source: PubChem (Broad Institute)
NOMO-1 viab: NOMO-1 AML cell viability reduction, primary screen, STK33 inhibitor project, CellTiter-Glo luminescence; NOMO-1 AML viability, 72 h; inhibition, % (test concentration not listed); 37,000 compounds, 7.5% hits;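 active = most replicates above 80%; inconclusive = exactly half above 80%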;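 note: wells of about 30 µL received 25 nL stock; 0% = median of vehicle wells and 100% = reference inhibitor level; the first replicate is given; inactives centre near 10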
An asterisk follows results filed as active; ? = inconclusive. This is a subset; the hit share may differ from the screen's.

Compound,NOMO-1 viab
C[C@H](CO)N1C[C@H](C)[C@@H](CN(C)Cc2ccc(C(=O)O)cc2)Oc2c(NS(=O)(=O)c3ccc(F)cc3)cccc2C1=O,5.6
O=C(COc1ccc([N+](=O)[O-])cc1)Nc1ccc2oc(-c3ccccc3F)nc2c1,16.2
CS(=O)(=O)N(CC(=O)Nc1cccc2ccccc12)c1ccc(Cl)cc1,3.5
C[C@@H]1CN([C@@H](C)CO)C(=O)c2cc(NC(=O)CCN3CCOCC3)ccc2O[C@H]1CN(C)C,-12.5
C[C@@H]1CCCCO[C@H](CN(C)C(=O)Nc2cccc3ccccc23)[C@@H](C)CN([C@H](C)CO)C(=O)c2cc(NC(=O)NC3CCCCC3)ccc2O1,39.6
C[C@@H]1CN([C@H](C)CO)C(=O)c2cccc(NC(=O)C3CCOCC3)c2O[C@@H]1CN(C)Cc1ccc(C(F)(F)F)cc1,-21.8
COc1ccc(NC(=O)Nc2cccc3c2O[C@@H](CN(C)Cc2ccc4c(c2)OCO4)[C@H](C)CN([C@@H](C)CO)C3=O)cc1,114.7*
COc1cccc(C(=O)Nc2cc(C)ccc2NC(=O)COc2ccccc2)c1,13.9
COc1ccc(C)cc1N(CC(=O)Nc1cccc(Cl)c1Cl)S(C)(=O)=O,-0.4
Cc1ccc(S(=O)(=O)N(C)C[C@H]2Oc3c(NS(=O)(=O)c4cccs4)cccc3C(=O)N([C@@H](C)CO)C[C@@H]2C)cc1,7.7
C[C@H](CO)N1C[C@H](C)[C@H](CN(C)Cc2ccc3c(c2)OCO3)Oc2ccc(NS(=O)(=O)c3ccc(Cl)cc3)cc2CC1=O,12.7
C[C@H]1CN([C@@H](C)CO)C(=O)Cc2cc(NS(=O)(=O)c3ccc(Cl)cc3)ccc2O[C@H]1CN(C)Cc1ccc(C(=O)Nc2ccccc2N)cc1,139.4*

For convenience, part of the list above:
Compound,NOMO-1 viab
C[C@@H]1CN([C@H](C)CO)C(=O)c2cccc(NC(=O)C3CCOCC3)c2O[C@@H]1CN(C)Cc1ccc(C(F)(F)F)cc1,-21.8
COc1ccc(NC(=O)Nc2cccc3c2O[C@@H](CN(C)Cc2ccc4c(c2)OCO4)[C@H](C)CN([C@@H](C)CO)C3=O)cc1,114.7*

(next part)
Compound,NOMO-1 viab
C[C@@H]1CN([C@H](C)CO)C(=O)c2cccc(NC(=O)c3ccncc3)c2O[C@@H]1CN(C)CC1CCCCC1,-0.3
Cc1ccc(S(=O)(=O)N(C)C[C@H]2Oc3ccc(NC(=O)CCCCCC(=O)Nc4ccccc4N)cc3C(=O)N([C@H](C)CO)C[C@@H]2C)cc1,30.8
COc1ccc(NC(=O)N(C)C[C@H]2Oc3ccc(NS(=O)(=O)c4ccc(C)cc4)cc3C(=O)N([C@@H](C)CO)C[C@H]2C)cc1,26.5
Cc1ccc(S(=O)(=O)Nc2cccc3c2O[C@H](CN(C)C(=O)NC2CCCCC2)[C@@H](C)CN([C@@H](C)CO)C3=O)cc1,10.5
COc1ccc(CN(C)C[C@H]2Oc3ccc(NS(=O)(=O)c4ccccc4)cc3C(=O)N([C@H](C)CO)C[C@@H]2C)cc1,19.2
C[C@H](CO)N1C[C@H](C)[C@H](CN(C)C)Oc2ccc(NC(=O)Cc3ccccc3)cc2CC1=O,3.0
Cc1noc(C)c1NC(=O)Nc1cccc2c1O[C@@H](CN(C)S(C)(=O)=O)[C@@H](C)CN([C@H](C)CO)C2=O,0.1
COc1ccc(C(=O)CSc2nc3ccccc3c(=O)[nH]2)cc1OC,-4.2
C[C@@H]1CCCCO[C@@H](CN(C)Cc2ccc(Cl)c(Cl)c2)[C@@H](C)CN([C@H](C)CO)C(=O)c2cc(NC(=O)C3CCCCC3)ccc2O1,114.2*
O=C(CSc1nnc(-c2ccccn2)n1-c1ccccc1)Nc1ccc2cn[nH]c2c1,8.7
C[C@H]1CN([C@@H](C)CO)C(=O)c2cc(NC(=O)Cc3cn(C)c4ccccc34)ccc2O[C@@H]1CN(C)C(=O)Nc1ccc2c(c1)OCO2,18.6
COC(=O)c1sc2ncn(CC(=O)Nc3cccc(Cl)c3C)c(=O)c2c1C,6.8
C[C@@H]1CN([C@@H](C)CO)C(=O)c2cc(NS(=O)(=O)c3cccs3)ccc2O[C@@H]1CN(C)C(=O)Nc1ccc(F)cc1,-12.5
CS(=O)(=O)N(CC(=O)Nc1cccc(F)c1)c1cccc(F)c1,-5.4
COc1ccc(NC(=O)Nc2ccc3c(c2)CC(=O)N([C@H](C)CO)C[C@@H](C)[C@H](CN(C)S(=O)(=O)c2cn(C)cn2)O3)cc1,-1.3
O=C(CCN1C(=O)C2C3C=CC(C3)C2C1=O)Nc1cccc2ccccc12 (stereo unspecified),14.2
C[C@H](CO)N1C[C@H](C)[C@H](CN(C)Cc2ccccc2)Oc2ccc(NC(=O)NC3CCCCC3)cc2C1=O,3.5
Cc1noc(C)c1NC(=O)N(C)C[C@H]1Oc2ccc(NS(=O)(=O)c3ccccc3)cc2C(=O)N([C@@H](C)CO)C[C@@H]1C,-25.4
C[C@@H]1CN([C@H](C)CO)C(=O)Cc2cc(NS(=O)(=O)c3ccc(F)cc3)ccc2O[C@@H]1CN(C)S(=O)(=O)c1cccs1,12.7
CCOc1cc(S(=O)(=O)NCc2ccco2)c(C)cc1C,-8.5
C[C@H](CO)N1C[C@H](C)[C@@H](CN(C)C(=O)Nc2cccc3ccccc23)Oc2c(NS(=O)(=O)c3ccc(Cl)cc3)cccc2C1=O,4.1
C[C@@H]1CN([C@@H](C)CO)C(=O)c2cc(NC(=O)CCC(F)(F)F)ccc2O[C@H]1CN(C)CC1CCCCC1,2.7
COc1ccc(NC(=O)Nc2ccc3c(c2)CC(=O)N([C@H](C)CO)C[C@@H](C)[C@H](CN(C)C(=O)NC(C)C)O3)cc1,4.2
C[C@@H]1CN([C@H](C)CO)C(=O)Cc2cc(NC(=O)NC3CCCCC3)ccc2O[C@H]1CN(C)C(=O)NC1CCCCC1,26.5
C[C@@H]1CN([C@H](C)CO)C(=O)c2cccc(NC(=O)c3nc4ccccc4s3)c2O[C@@H]1CN(C)Cc1ccc(C(F)(F)F)cc1,69.3
C[C@@H]1CN([C@H](C)CO)C(=O)Cc2cc(NC(=O)Cc3ccccc3)ccc2O[C@H]1CN(C)CC1CC1,2.9
CCOC(=O)c1c(C)n(-c2cccc(C)c2)c2ccc(O)cc12,?
C[C@H](CO)N1C[C@H](C)[C@@H](CN(C)Cc2ccc(Oc3ccccc3)cc2)Oc2ccc(NS(=O)(=O)c3ccccc3)cc2C1=O,55.0
C[C@@H]1CN([C@@H](C)CO)C(=O)c2cc(NS(=O)(=O)c3cn(C)cn3)ccc2O[C@H]1CN(C)C,-9.9
C[C@@H]1CN([C@H](C)CO)C(=O)c2cccc(NC(=O)C3CCOCC3)c2O[C@H]1CN(C)C,27.5
CC(=O)Nc1ccc(OCC(O)Cn2cnc3ccccc32)cc1 (stereo unspecified),18.7
COc1ccc(S(=O)(=O)N(C)C[C@H]2Oc3c(NC(=O)C4CC4)cccc3C(=O)N([C@H](C)CO)C[C@@H]2C)cc1,10.8
C[C@@H]1CN([C@H](C)CO)C(=O)Cc2cc(NC(=O)C3CC3)ccc2O[C@H]1CN(C)Cc1ccc(C(F)(F)F)cc1,10.6
Cc1ccc(S(=O)(=O)Nc2ccc3c(c2)C(=O)N([C@H](C)CO)C[C@H](C)[C@@H](CN(C)Cc2ccc(-c4ccccc4)cc2)O3)cc1,53.3
COc1cc2ccc(=O)oc2c(OC2OC(CO)C(O)C(O)C2O)c1O (stereo unspecified),-13.4
Cc1cc(C(=O)Nc2cccc3c2O[C@H](CN(C)CC2CCCCC2)[C@@H](C)CN([C@H](C)CO)C3=O)n(C)n1,55.3
CC(C)NC(=O)N(C)C[C@@H]1Oc2ccc(NC(=O)CCN3CCOCC3)cc2C(=O)N([C@@H](C)CO)C[C@H]1C,9.3
Cc1ccc(S(=O)(=O)Nc2ccc3c(c2)C(=O)N([C@H](C)CO)C[C@H](C)[C@@H](CN(C)C(=O)Nc2ccc(F)cc2)OCCCC[C@@H](C)O3)cc1,39.2
CC(C)OC(=O)n1c(=S)oc2ccccc21,9.9
CNC(=O)NC(=O)Cn1cnc2sc(-c3ccccc3)cc2c1=O,11.6
Cc1ccc(S(=O)(=O)Nc2ccc3c(c2)CC(=O)N([C@H](C)CO)C[C@@H](C)[C@H](CN(C)S(=O)(=O)c2ccc(Cl)cc2)O3)cc1,-3.0
C[C@@H]1CN([C@H](C)CO)C(=O)Cc2cc(NC(=O)CCCCCC(=O)Nc3ccccc3N)ccc2O[C@H]1CN(C)Cc1ccc(Oc2ccccc2)cc1,124.6*
C[C@@H]1CN([C@H](C)CO)C(=O)c2cccc(NS(=O)(=O)c3ccccc3)c2O[C@@H]1CN(C)CC1CC1,-10.7
Cc1cccc(-n2c(N)cc(=O)nc2SCC(=O)N(c2ccccc2)c2ccccc2)c1,0.8
C[C@@H]1CN([C@H](C)CO)C(=O)Cc2cc(NC(=O)Cn3cnnn3)ccc2O[C@@H]1CN(C)C(=O)Nc1ccc(F)cc1,10.1
C[C@@H]1CN([C@H](C)CO)C(=O)c2cc(NC(=O)Cc3cn(C)c4ccccc34)ccc2O[C@@H]1CN(C)S(=O)(=O)c1ccc(Cl)cc1,33.0
C[C@H]1CN([C@@H](C)CO)C(=O)c2cc(NS(=O)(=O)c3ccc(Cl)cc3)ccc2O[C@H]1CN(C)C(=O)Nc1ccc2c(c1)OCO2,7.0
C[C@H](CO)N1C[C@H](C)[C@H](CN(C)S(=O)(=O)c2ccc(Cl)cc2)Oc2ccc(NS(=O)(=O)c3ccc(F)cc3)cc2C1=O,33.1
C[C@H](CO)N1C[C@H](C)[C@H](CN(C)S(=O)(=O)c2cn(C)cn2)Oc2c(NC(=O)c3nc4ccccc4s3)cccc2C1=O,?
Cc1ccc(SCc2cc(=O)[nH]c(SCC(=O)n3c4ccccc4c4ccccc43)n2)cc1,12.0
C[C@@H]1CN([C@@H](C)CO)C(=O)c2cccc(NS(=O)(=O)c3cn(C)cn3)c2O[C@H]1CN(C)Cc1ccc(Oc2ccccc2)cc1,3.4
CNC[C@H]1Oc2ccc(N(C)C)cc2C(=O)N([C@@H](C)CO)C[C@H]1C,21.2
S=c1[nH]c2ccccc2n1Cc1ccccc1,8.4
Cc1noc(C)c1NC(=O)Nc1ccc2c(c1)C(=O)N([C@H](C)CO)C[C@H](C)[C@@H](CN(C)Cc1ccccc1)OCCCC[C@@H](C)O2,1.8
C[C@@H]1CN([C@H](C)CO)C(=O)Cc2cc(NC(=O)NC3CCCCC3)ccc2O[C@@H]1CN(C)C(=O)Nc1ccc2c(c1)OCO2,15.7
C[C@@H]1CN([C@H](C)CO)C(=O)c2cccc(NC(=O)c3ccc(-c4nccs4)cc3)c2O[C@H]1CN(C)CC1CCCCC1,86.6*
Cc1cc(Cl)c(S(=O)(=O)Nc2ccc3c(c2)CCC3)cc1OCC(N)=O,15.9
C[C@@H]1CCCCO[C@H](CN(C)C(=O)Nc2ccc3c(c2)OCO3)[C@@H](C)CN([C@H](C)CO)C(=O)c2cc(NC(=O)CCC(F)(F)F)ccc2O1,22.2
COc1ccc(CN(C)C[C@@H]2Oc3ccc(NC(=O)c4ccncc4)cc3C(=O)N([C@@H](C)CO)C[C@H]2C)cc1,1.4
C[C@H](CO)N1C[C@H](C)[C@@H](CN(C)Cc2ccccc2)Oc2c(NC(=O)Nc3ccc(F)cc3)cccc2C1=O,97.9*

Compounds from the list above that contain a thiophene ring, fused or not (5):
Compound,NOMO-1 viab
Cc1ccc(S(=O)(=O)N(C)C[C@H]2Oc3c(NS(=O)(=O)c4cccs4)cccc3C(=O)N([C@@H](C)CO)C[C@@H]2C)cc1,7.7
COC(=O)c1sc2ncn(CC(=O)Nc3cccc(Cl)c3C)c(=O)c2c1C,6.8
C[C@@H]1CN([C@@H](C)CO)C(=O)c2cc(NS(=O)(=O)c3cccs3)ccc2O[C@@H]1CN(C)C(=O)Nc1ccc(F)cc1,-12.5
C[C@@H]1CN([C@H](C)CO)C(=O)Cc2cc(NS(=O)(=O)c3ccc(F)cc3)ccc2O[C@@H]1CN(C)S(=O)(=O)c1cccs1,12.7
CNC(=O)NC(=O)Cn1cnc2sc(-c3ccccc3)cc2c1=O,11.6

Later entries
Compound,NOMO-1 viab
Cc1ccc(S(=O)(=O)Nc2ccc3c(c2)C(=O)N([C@H](C)CO)C[C@H](C)[C@@H](CN(C)C(=O)Nc2ccccc2)OCCCC[C@@H](C)O3)cc1,18.5
O=C1NN=C(c2ccccc2)/C1=C1\OC(c2ccccc2)=CS1,138.8*
COc1ccc(NC(=O)Nc2ccc3c(c2)CC(=O)N([C@@H](C)CO)C[C@H](C)[C@H](CN(C)S(=O)(=O)c2ccc(OC)cc2)O3)cc1,1.7
CCOC(=O)c1cc(=O)c2ccc(OCc3ccccc3)cc2o1,104.9*
COc1ccc(S(=O)(=O)N(C)C[C@H]2OCCCC[C@@H](C)Oc3ccc(NS(=O)(=O)c4ccc(F)cc4)cc3C(=O)N([C@H](C)CO)C[C@@H]2C)cc1,56.2
COc1ccc(NC(=O)Nc2ccc3c(c2)C(=O)N([C@@H](C)CO)C[C@@H](C)[C@H](CN(C)S(=O)(=O)c2ccccc2)O3)cc1,-9.9
C[C@H]1CN([C@@H](C)CO)C(=O)c2cc(NC(=O)Cn3cnnn3)ccc2O[C@@H]1CN(C)C,5.1
COc1ccc(O)c(C(c2c[nH]c3ccccc23)c2c[nH]c3ccccc23)c1,44.4
CNC(=S)Nc1cc(Cl)cc(Cl)c1,16.3
C[C@H]1CN([C@@H](C)CO)C(=O)c2cc(NC(=O)Nc3ccc(F)cc3)ccc2O[C@@H]1CN(C)C(=O)Nc1ccccc1,2.6
